# HPGD block – blocks human HPGD enzyme activity; 150,000 compounds, 4.3% hits; Potency, µM, for the others: at the highest dose activity change, negative = inhibition, hits mostly inhibitors; P15428; purified HPGD, NADH fluorescence kinetic, PGE2 substrate; active = well fitted inhibition curve with a large enough effect (not every such curve was filed as active); inconclusive = small, poorly fitted or top-dose-only effect, or another doubt; inactive = no such curve, though single readings can be large or run the other way;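 note: top concentration of the series not given in the record; plate controls included wells without enzyme; inactives centre near -10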
# Target sequence (P15428 whole entry, looked up): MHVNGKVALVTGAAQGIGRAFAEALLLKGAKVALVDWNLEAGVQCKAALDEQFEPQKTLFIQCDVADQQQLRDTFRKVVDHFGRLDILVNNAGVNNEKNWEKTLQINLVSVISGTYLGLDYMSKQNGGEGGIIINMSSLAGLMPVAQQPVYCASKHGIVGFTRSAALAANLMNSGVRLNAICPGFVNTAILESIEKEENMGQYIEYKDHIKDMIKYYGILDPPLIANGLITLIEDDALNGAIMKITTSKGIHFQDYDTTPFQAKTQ
#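 20 nM HPGD preincubated 15 min at room temperature with compound in 50 mM Tris-HCl pH 8, 0.01% Tween 20. Started with 1 mM NAD+ and 30 uM prostaglandin E2; NADH fluorescence (360/450 nm) read 5 times over 30-s intervals, last minus first.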
# * marks the source's active call; other numbers are inactive results; ? = inconclusive. % is set by controls: 0 for no effect and ±100 for the full control effect; potency is the fitted concentration of half-maximal effect. This is a subset (hit frequency here may not be typical).
entry	SMILES	HPGD block
1	CCN(NC(=O)C(O)(c1ccc(F)cc1)c1ccc(F)cc1)C(=O)c1ccccc1	-9%
2	COc1nc(NS(=O)(=O)c2ccc(C)cc2)nc(C)c1Cl	-4%
3	COC(=O)c1ccc(N2CCN(S(=O)(=O)c3ccc(Br)cc3)CC2)c([N+](=O)[O-])c1	-12%
4	O=C(CN(C(=O)CCNC(=O)c1ccco1)c1ccccc1)NC1CCCC1	-11%
5	COc1ccc(Cl)cc1NC(=O)CSc1nnc(Cn2c(=O)sc3ccccc32)n1C	-8%
6	C(=C\c1ccccc1)/C=N/n1cnnc1	-4%
7	O=C(NCCO)c1ccc(CSc2nc3ccccc3[nH]2)cc1	25µM*
8	CCNC(=O)CC(=O)Nc1ccccc1C(=O)O	-11%
9	COC(=O)c1cc(Br)c(=O)n(Cc2ccc3c(c2)OCO3)c1	-28%
10	O=C(CSc1ncn(-c2ccccc2)n1)Nc1nccs1	8%
11	CCOC(=O)c1sc(NC(=O)COC(=O)C(CCSC)NC(C)=O)nc1C (stereo unspecified)	-13%
12	Cc1cccc(-c2nsc(SCC(=O)Nc3cc(C)on3)n2)c1	-23%
13	C/C(=N\Nc1nc(N)cc(Cl)n1)c1cccc(N)c1	-14%
14	CCOc1ccc(C)cc1S(=O)(=O)N1CCCCC1	0%
15	Cc1cc(C)c2c(-n3cccc3)c(C(=O)NNS(=O)(=O)c3ccc(Br)cc3)sc2n1	-4%
16	CCOC(=O)C1C(=O)NC(SCC(=O)Nc2nccs2)=C(C#N)C1c1ccccc1OCC (stereo unspecified)	13µM*
17	CCOc1ccccc1NC(=O)C1CCCN(S(=O)(=O)c2ccc(OC)c(C)c2)C1 (stereo unspecified)	-8%
18	NS(=O)(=O)c1ccc(Nc2nc(-c3ccc(O)cc3)cs2)cc1	-26%
19	CCc1ccc(OCCNC(=O)c2cc(SC)ccc2Cl)cc1	-19%
20	CCCCCn1c(Br)nc2c1c(=O)n(CC(N)=O)c(=O)n2C	-17%
21	CCC(C)(C)NC(=O)CN(C(=O)c1snc(C(N)=O)c1N)c1ccc2c(c1)OCCO2	0%
22	CCOc1cccc(C(=O)NC(=S)Nc2ccccc2)c1	-20%
23	O=C(CSc1nnc(Cc2ccccc2)n1-c1cccc(Cl)c1)NNC(=O)Cc1ccccc1	-11%
24	CC1(C)Cc2c(C#N)c(N)n(-c3ccccc3)c(=O)c2CO1	-9%
25	CCCN(CCC)C(=O)CC(c1ccccc1)c1cc(Br)ccc1O (stereo unspecified)	-21%
26	COCCCNC(=O)C1CCC(=O)N1Cc1ccccc1Cl (stereo unspecified)	-13%
27	CN(C(=O)c1ccc(Cl)cc1)C1=CCCCC1CCC#N (stereo unspecified)	-5%
28	C[C@@H]1CCC2[C@](C)(CO)C(O)CC[C@@]2(C)[C@@]12CC[C@](CO)(CCO)O2 (stereo partly specified)	-4%
29	CC(C)C(=O)Nc1nc2cc3c(cc2s1)OCO3	-7%
30	CC(C)(C)NC(=O)CSC(=Nc1ccccc1F)NC#N	-19%
31	O=C(C1CCCN(S(=O)(=O)c2ccc(Cl)cc2)C1)N(Cc1cccs1)C1CC1 (stereo unspecified)	-18%
32	O=C(NCc1cccnc1)c1ccccn1	3%
33	Cc1ccc2nc(C3CCCN(C(=S)Nc4cccc(C)c4C)C3)[nH]c2c1 (stereo unspecified)	-12%
34	CCc1cccc(C)c1NC(=O)c1ccc(CN2CCc3ccccc3C2)cc1	-9%
35	N#CCSc1nnc(COc2cccc3ccccc23)n1-c1ccccc1	-26%
36	CC(C)NC(=O)NC(=O)CSc1nnc(COc2ccccc2Cl)o1	-5%
37	Cc1ccc(-n2cc(C(=O)c3ccc4ccccc4c3O)cn2)cc1	-15%
38	O=C1c2ccccc2-c2c1cccc2C(=O)N1CCOCC1	0%
39	NC(=O)Nc1ccc2c(c1)OCCO2	-10%
40	COC(=O)c1ccccc1NC(=O)CN(CCc1ccccc1)S(C)(=O)=O	-10%
41	CC(C)CN1CCC2(CC1)CCN(C(=O)c1cc(C(F)(F)F)cc(C(F)(F)F)c1)CC2	-8%
42	CCn1c(CSc2nnc(-c3ccc4c(c3)OCO4)o2)nc2cc(S(=O)(=O)N(C)C)ccc21	-14%
43	CCCNc1nc2c(c(=O)[nH]c(=O)n2C)n1Cc1cccc(Br)c1	-14%
44	COc1ccccc1N1CCN(C(=O)Nc2cccc(Cl)c2)CC1	-4%
45	Cc1nn(C(C)c2nc(-c3ccccc3)no2)c(C)c1[N+](=O)[O-] (stereo unspecified)	-8%
46	O=C(CCNS(=O)(=O)c1cccc2nonc12)NCCc1ccc(Cl)cc1	-5%
47	CN(C)S(=O)(=O)c1ccc(C(=O)Nc2ccccc2C(=O)O)cc1	-17%
48	CC(=O)OC1C[C@]2(C)C(C(C)=O)CCC2C2CCC3=CC(=O)CC[C@@]3(C)C12 (stereo partly specified)	0%
49	Cc1nc(Nc2ccc(S(N)(=O)=O)cc2)oc1C	-9%
50	O=C(Nc1cc(Sc2ccccn2)cc([N+](=O)[O-])c1)c1cccc(Cl)c1	-25%
51	N#CC1=C(N)Oc2cc(O)c(C=Nc3ccccc3)cc2C1c1ccccc1 (stereo unspecified)	-12%
52	CCCCNC(=O)c1onc(CSc2ccccc2CC)c1C(=O)O	-28%
53	c1ccc(-c2nnc(N3CCN(c4ccccn4)CC3)c3ccccc23)cc1	-25%
54	COC(=O)c1ccccc1NC(=O)c1noc2c1CCC2	-13%
55	c1ccc(C2=NN[C@@H]3c4ccccc4-c4ccccc4N3C2)cc1	-18%
56	COCc1nc2sc(C)c(C)c2c(=O)[nH]1	-8%
57	O=C(Cc1ccc(Cl)cc1)NCCCn1ccnc1	-9%
58	O=C(NCc1ccccc1)C(=O)NCC1OCCN1S(=O)(=O)c1cccs1 (stereo unspecified)	-2%
59	Cc1cc(=Nc2ccc3c(c2)c(N)cc(C)[n+]3C)nc(N)n1C	-10%
60	CC1(C)Cc2nc3sc4c(=O)n(Cc5ccccc5)cnc4c3cc2CS1	?

# (more compounds)
entry	structure	HPGD block
61	CCOc1ccc(C2=Nn3c(nnc3-c3cccnc3)SC2)cc1	-6%
62	CCCC(=O)Nc1ccc(C(=O)n2nnc3ccccc32)cc1	-21%
63	CCc1nnc(NC(=O)Cn2nnc(-c3ccccc3F)n2)s1	-2%
64	O=S(=O)(c1cccs1)N1CCC(Cc2ccccc2)CC1	-3%
65	CCN(Cc1ccccc1)S(=O)(=O)c1cc(C(=O)NCC2CCCCC2)ccc1OC	-20%
66	CCOc1ccccc1N1CCN(Cc2ccc(OC)c(OC)c2)CC1	6%
67	COC(=O)c1ccccc1NC(=O)c1ccc(-c2ccc(Br)cc2)o1	?
68	CCOC(=O)C1=C(O)/C(=C\c2cccs2)N=C1C	-9%
69	CC(C)NS(=O)(=O)c1ccc(CCC(=O)Nc2ccc3c(c2)OCO3)cc1	-12%
70	CC(=O)Nc1ccc2oc(-c3cc(F)c(F)cc3Cl)nc2c1	?
71	Cc1cc(C)n(CCOC(=O)c2sc3ccccc3c2Cl)n1	-11%
72	CC(C)CN(C(=O)COC(=O)c1ccc2c(c1)NC(=O)CS2)C1CCS(=O)(=O)C1 (stereo unspecified)	?
73	Cc1cccc(Nc2nc(N)c([N+](=O)[O-])c(N3CC(C)CC(C)C3)n2)c1 (stereo unspecified)	-18%
74	c1ccc2c(-c3nnc(SCc4cn5ccccc5n4)o3)c[nH]c2c1	-13%
75	CCc1nnc(NC(=O)CSc2nnc(COc3ccccc3C)o2)s1	-22%
76	CCOc1ccc(S(=O)(=O)N2CCC(C(N)=O)CC2)c2ccccc12	-15%
77	Cc1cccc(N2CC(=O)N(c3cccc(C)c3)CC2=O)c1	-4%
78	C=CCNC(=O)c1onc(CCl)c1C(=O)OC	-7%
79	COc1ccccc1CNC(=O)CNC(=O)Cn1cnc2ccccc2c1=O	-1%
80	O=C(Nc1ccccc1C(=O)O)c1ccc(Cl)c(S(=O)(=O)N2CCOCC2)c1	-18%
81	CCOC(=O)C1=C(O)/C(=C/c2ccccn2)SC1=Nc1ccc(Cl)cc1	-11%
82	O=C(Nc1cccc2cccnc12)c1ccc2c(c1)OCCO2	?
83	O=C1CNC(=O)/C1=C/c1ccccc1	14µM*
84	CC(C)CNC(=O)C(=O)NNC(=O)C1CCCCC1	3%
85	CS(=O)(=O)Nc1cccc(C2=NN(S(=O)(=O)c3ccc(F)cc3)C(c3cccs3)C2)c1 (stereo unspecified)	-13%
86	Cc1ccc(C)c(N2CCN(C(=O)CCc3nc4ccccc4[nH]3)CC2)c1	-7%
87	Cc1cccc(Nc2nnc(SCC3CCCCO3)s2)c1 (stereo unspecified)	?
88	C=CCc1ccccc1OCC(O)CN1CCN(C(=O)OCC)CC1 (stereo unspecified)	-16%
89	CCOCC(=O)Nc1nnc(COCC)s1	-12%
90	CCC(=O)O[C@H]1C(O[C@@H]2C(C)[C@H](O[C@H]3C[C@@](C)(OC)C(O)C(C)O3)C(C)C(=O)OC(CC)[C@@](C)(O)C(O)[C@H](C)C(=O)C(C)C[C@]2(C)O)OC(C)CC1N(C)C (stereo partly specified)	?
91	COc1ccc(NS(=O)(=O)c2ccc(O)c(C(=O)OCC(=O)Nc3ccc4c(c3)OCCO4)c2)cc1	?
92	CC(C)OC(=O)CSc1nnc(CNc2cccc(Cl)c2)n1C	-13%
93	COc1cc(S(=O)(=O)N2CCC(N3CCCCC3)CC2)ccc1-n1cnnn1	-5%
94	CCN=C1SC(C(=O)Nc2cccc(OCC)c2)CC(=O)N1CC (stereo unspecified)	-14%
95	Cc1cc(=O)[nH]c2n[nH]c(-c3ccccc3)c12	?
96	COc1cc(C(=O)Nc2c(C)cc(C)cc2C)c(-n2cnnn2)cc1OC	-8%
97	Cc1cc(OCC(=O)O)c2ccccc2n1	-3%
98	C=CCn1c(COc2ccccc2)nnc1SCC(=O)N/N=C/c1cc(Cl)ccc1O	-24%
99	CC(NC(=O)c1ccc(Br)s1)C1CCCO1 (stereo unspecified)	32µM*
100	CCOc1ccc(-c2nnn(CC(=O)N3CCN(c4ccc(F)cc4)CC3)n2)cc1OCC	-2%
101	Oc1ccc(Cl)cc1-c1cc(-c2ccco2)[nH]n1	25µM*
102	CCC(=O)NC(=S)Nc1cccc(NC(=O)c2ccccc2Cl)c1	-6%
103	Cc1ccc(C(=O)COC(=O)CNC(=O)CNC(=O)c2ccc(C)cc2)cc1	-1%
104	COC(=O)C1=C2SC(C)C(=O)N2C(N)=C(C#N)C1c1ccc(OC)c(OC)c1 (stereo unspecified)	?
105	COc1ccc(-c2nc3scc(-c4ccc(OC)c(OC)c4)c3c(=O)o2)cc1	-12%
106	O=C(NCc1ccc(Cl)cc1)C(=O)NCC1OCCN1C(=O)c1cccs1 (stereo unspecified)	-3%
107	O=C1c2ccccc2C(=O)N1CC(=O)N1c2ccccc2CCc2ccccc21	-11%
108	O=S(Cc1ccc(Br)cc1)Cc1nnc(SCc2c(F)cccc2Cl)n1-c1ccccc1 (stereo unspecified)	-13%
109	COc1ccc2nc(N3CCC(O)CC3)c(C#N)cc2c1	?
110	Cc1ccc(/C=C/c2nnc(-c3ccccc3)o2)cc1	?
111	CCCS(=O)(=O)N1CCN(c2ccccc2F)CC1	-12%
112	Cc1[nH]c(=O)c(C#N)c2c1CSC(C)(C)C2	?
113	Cc1ccc(Oc2nc3ccccc3n3cccc23)cc1	?
114	O=C(N/N=C/c1ccc2cccc(OCc3ccccc3)c2n1)c1ccc(Cl)cc1	?
115	O=C(Nc1cccc2nsnc12)C1CC(=O)N(c2ccccc2)C1 (stereo unspecified)	-14%
116	Cc1ccc(-c2csc(=Nc3cccnc3)n2CCCn2ccnc2)cc1C	-9%
117	CC(=O)C1=C(C)NC(SCC(=O)c2ccc(-c3ccccc3)cc2)=C(C#N)C1c1cccnc1 (stereo unspecified)	-5%
118	CCn1c(NN)nc2sc3c(c2c1=O)CCC3	-11%
119	CCOCCn1c(CN2CCOCC2)nc2c1c(=O)[nH]c(=O)n2C	-5%
120	COCCN(CCOC)S(=O)(=O)c1ccc(C(=O)Nc2nnc(C)o2)cc1	-6%

# Nos. 114–116, reprinted for reference:
entry	structure	HPGD block
114	O=C(N/N=C/c1ccc2cccc(OCc3ccccc3)c2n1)c1ccc(Cl)cc1	?
115	O=C(Nc1cccc2nsnc12)C1CC(=O)N(c2ccccc2)C1 (stereo unspecified)	-14%
116	Cc1ccc(-c2csc(=Nc3cccnc3)n2CCCn2ccnc2)cc1C	-9%

# In the list so far, five have a COOH group.
entry	structure	HPGD block
8	CCNC(=O)CC(=O)Nc1ccccc1C(=O)O	-11%
47	CN(C)S(=O)(=O)c1ccc(C(=O)Nc2ccccc2C(=O)O)cc1	-17%
52	CCCCNC(=O)c1onc(CSc2ccccc2CC)c1C(=O)O	-28%
80	O=C(Nc1ccccc1C(=O)O)c1ccc(Cl)c(S(=O)(=O)N2CCOCC2)c1	-18%
97	Cc1cc(OCC(=O)O)c2ccccc2n1	-3%

# Going on with the list:
entry	structure	HPGD block
121	O=C(N/N=C/C=C/c1ccc2c(c1)OCO2)c1ccc([N+](=O)[O-])cc1	-21%
122	CCOCCCNC(=S)N1C2CCC1CC(NC(=O)NC13CC4CC(CC(C4)C1)C3)C2 (stereo unspecified)	-5%
123	CC1CC(CC(C)C(=O)Nc2nncs2)C(=O)O1 (stereo unspecified)	-7%
124	COc1cc(NC(=O)c2ccccc2)c(OC)cc1Cl	3%
125	COCCN1C(=O)N[C@@H](c2cccc(C(F)(F)F)c2)C(C(C)=O)=C1C	-14%
126	COc1ccc(/C=N/NC(=O)Cc2cc(OC)c(OC)cc2[N+](=O)[O-])cc1	-12%
127	COCCNC(=O)CCCC(=O)NCCOC	3%
128	COC(=O)C1=C(C)N(C)C(=S)NC1c1ccccc1 (stereo unspecified)	-11%

# Molecules from the list above containing a CF3 group, in the order listed:
entry	structure	HPGD block
41	CC(C)CN1CCC2(CC1)CCN(C(=O)c1cc(C(F)(F)F)cc(C(F)(F)F)c1)CC2	-8%
125	COCCN1C(=O)N[C@@H](c2cccc(C(F)(F)F)c2)C(C(C)=O)=C1C	-14%
